gsp antag: gsp mutant antagonism. gsp-mutant cells, cAMP HTRF, 30 min; control for the full effect not named in the record. Potency, µM (series often up to 76.9 µM), without a hit: at the top dose activity change, negative = inhibition, usual class: inhibitors. 340,000 compounds, 0.4% hits; active = falling curve of any shape with a large fitted effect; inconclusive = falling curve, mostly with a smaller effect; inactive = flat or rising curve; cell line not stated here;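 further: intracellular cAMP measured with PDE inhibitor Ro 20-1724 present during compound exposure; on the % scale 0 is the no-effect control and ±100 the full control effect; nearly all actives have a fitted effect of over 65% in size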
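Measurement of cellular cAMP by homogeneous time-resolved fluorescence following a 30 min compound exposure at 37C. The PDE inhibitor […] was present throughout; the assay buffer was DPBS with 0.05% BSA and 0.005% Tween 20.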
ClpP mod: qHTS Assay for Activators of ClpP. ATP-dependent Clp protease proteolytic subunit (Bacillus subtilis (strain 168)), P80244. purified B. subtilis ClpP, FRET peptide cleavage, 20 min. Potency, µM (titrated, usually from 57.5 µM), inactives show top-dose activity change, negative = active. 340,000 compounds, 1.9% hits. AID 651965, 2013; active = well fitted falling curve with a large enough effect; inconclusive = small, poorly fitted or top-dose-only effect; inactive = no such curve, though single readings can be large or run the other way; further: the source files actives as falling curves though it sought activators and does not explain the sign; nearly all actives have a fitted effect of over 65% in size; many hits overshoot -100%
Target sequence (P80244 whole entry, looked up): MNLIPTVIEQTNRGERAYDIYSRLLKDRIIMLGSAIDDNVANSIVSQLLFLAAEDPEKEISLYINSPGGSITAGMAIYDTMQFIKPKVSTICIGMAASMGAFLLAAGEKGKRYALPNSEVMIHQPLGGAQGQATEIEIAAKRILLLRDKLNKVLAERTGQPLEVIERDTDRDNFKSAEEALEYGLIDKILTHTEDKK
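Purified B. subtilis ClpP, 10 microg/mL final in Tris/HCl pH8 with KCl, BSA, glycerol and Tween-20, cleaved an Abz/nitrotyrosine-quenched decapeptide. Fluorescence (ex 320, em 430) was read at 0 and 20 min at room temperature. Delta was normalized to 5.8 microM ADEP and DMSO/no-enzyme controls.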
The depositor's hits bear a star; ? = inconclusive. Potency means the concentration at half of the fitted maximal effect. An excerpt; rates above refer to the full screens.

Results follow in this order: gsp antag, ClpP mod
> O=C(CC1C[C@H](C(=O)N2CCOCC2)[C@@]2(CCC3CCCC3)c3[nH]c4ccccc4c3CCN2C1=O)NCCC1=CCCCC1 (some centres undefined)
  10%, 0.3%
> Cc1ccc(NC(=O)c2ncn(CCCN[C@H](C)c3cccc4ccccc34)n2)cc1C
  8%, 0.2%
> O=C1CCC/C=C\C[C@@H](CC(=O)N(CCO)Cc2ccccc2)C(=O)N[C@H](Cc2c[nH]c3ccccc23)CO1
  -6%, -1.3%
> COC(=O)[C@H](NCc1ccc(OC)c(B(O)O)c1)C(C)C
  13%, 2.9%
> CCCCCCCC(=O)C(C)C(=O)N(C)[C@H](Cc1ccc(OC)cc1)C(=O)N(C)[C@H](C(N)=O)C(C)C (some centres undefined)
  -10%, -3.7%
> CCN(CC)C(=O)[C@H]1CC(CC(=O)NCCc2ccccn2)C(=O)N2CCc3c([nH]c4ccc(OC)cc34)[C@]12C (some centres undefined)
  4%, -12%
> COc1cc(NCCCn2cnc3c(OCc4ccccc4)ncnc32)cc(OC)c1OC
  -5%, -0.3%
> C[C@@H]1[C@H]2[C@@H]3CC[C@@H](C3)[C@H]2CN[C@H]1c1cn(Cc2ccccc2)c2ccccc12
  5%, -5.1%
> COc1ccc(-c2sc3cc4c(cc3c2-c2ccc(OCCN3CCOCC3)cc2)OCO4)cc1
  -11%, ?
> CCN(CC)C(=O)[C@H]1C[C@H](CC(=O)NCCCOC)C(=O)N2CCc3c([nH]c4cc(CCC(=O)N(C)C)ccc34)[C@]12C
  6%, -6.5%
> O=C(c1cccc(Cl)c1)N1CCC2CC1c1cc(N3CCOCC3)ccc12 (centres undefined)
  4%, 1.1%
> CCCN1C(C)C(C(=O)OCC)=CN(Cc2cccc(I)c2)S1(=O)=O (centres undefined)
  -6%, 0.3%
> CCOC(=O)C1=CN(CC)S(=O)(=O)NC1CC (centres undefined)
  -5%, -1.8%
> COc1ccc(NC(=O)N(C)C[C@H]2Oc3c(NC(=O)NC4CCCCC4)cccc3C(=O)N([C@H](C)CO)C[C@@H]2C)cc1
  -8%, -0.9%
> O=C(NCc1ccccc1)c1cccc(NC(=O)C2CCCC2)c1
  4%, -1.6%
> C/C=C1\NC(=O)[C@H](C)NC(=O)[C@@H](NC(=O)[C@@H](Cc2ccc(O)cc2)NC(=O)[C@@H](NC(=O)/C(C)=C/C)C(C)C)[C@@H](C)OC(=O)[C@H](CCCCc2ccc(O)cc2)NC(=O)[C@@H](CCC(=O)O)NC1=O
  -1%, -0.1%
> O=C(C[C@@H]1C/C=C\C[C@@H](NC(=O)OCC2c3ccccc3-c3ccccc32)C(=O)OCCNC1=O)N[C@@H](CO)Cc1ccccc1
  1%, 1.6%
> C=CCC[C@@H](Cc1ccc(F)cc1)C(=O)OC[C@@H](Cc1c[nH]c2ccccc12)NC(=O)[C@@H](CC=C)CC(=O)N[C@@H](CO)Cc1ccccc1
  -11%, -0.1%
> CC(C)(C)S(=O)N1Cc2ccc(CO)cc2[C@H]1CCO (some centres undefined)
  10%, -1.8%
> CCOC(=O)C1=CN(Cc2cccc(-c3ccc4c(c3)OCO4)c2)S(=O)(=O)N(C)C1C (centres undefined)
  -9%, ?

Some of the entries so far, with each value named:
COc1ccc(-c2sc3cc4c(cc3c2-c2ccc(OCCN3CCOCC3)cc2)OCO4)cc1
  gsp antag: -11%; ClpP mod: ?
O=C1CCC/C=C\C[C@@H](CC(=O)N(CCO)Cc2ccccc2)C(=O)N[C@H](Cc2c[nH]c3ccccc23)CO1
  gsp antag: -6%; ClpP mod: -1.3%

More structures.
Results follow in this order: gsp antag, ClpP mod
> CC(C)C[C@@H]1CN=C(N)N1C[C@@H]1CCCN1C[C@@H](C(C)C)N1C[C@@H](Cc2ccccc2)N(CCc2ccc(Cl)c(Cl)c2)C1=N
  -1%, -0.8%
> CN(C)C(=O)CCc1ccc2c3c([nH]c2c1)[C@]1(C)[C@@H](C(=O)N2CCOCC2)C[C@H](CC(=O)NCCC2=CCCCC2)C(=O)N1CC3
  -11%, -1.9%
> COc1ccc(CCCN2CCC(CN3C(=S)NC[C@@H]3Cc3ccccc3)CC2)cc1OC
  6%, -0.2%
> COc1ccc2[nH]c3c(c2c1)CCN1C(=O)C(CC(=O)NCCCN(C)C)C[C@H](C(=O)N2CCCCC2)[C@@]31C (some centres undefined)
  10%, -15%
> Cc1ccc(S(=O)(=O)N2C[C@@H]3[C@H]4CC[C@H](C4)[C@@H]3[C@@H](C)[C@H]2c2ccco2)cc1
  -10%, -1.7%
> CCc1ccc([C@@H]2CC=C(C(=O)O)[C@H](c3ccc(C)cc3)N2S(=O)(=O)c2ccc(C)cc2)cc1
  -15%, -0.6%
> O=C(Nc1ccn(CCCNCc2ccc3c(c2)OCO3)c(=O)n1)OCc1ccccc1
  -2%, -2.3%
> CCCCN1C=C(C(=O)OCC)C(=O)CC1
  3%, -2.9%
> C[C@]12c3[nH]c4ccc(Cl)cc4c3CCN1C(=O)[C@@H](CC(=O)NCc1cccc(C(F)(F)F)c1)C[C@@H]2C(=O)N1CCCCC1
  -4%, 2.2%
> CN(C)C(=O)CCc1ccc2c3c([nH]c2c1)[C@]1(CCC2CCCC2)[C@@H](C(=O)N2CCOCC2)C[C@H](CC(=O)NCCCn2ccnc2)C(=O)N1CC3
  2%, -1.4%
> C[C@H](CO)N1C[C@H](C)[C@@H](CN(C)S(=O)(=O)c2ccc(F)cc2)Oc2ccc(NC(=O)Nc3ccc4c(c3)OCO4)cc2C1=O
  -14%, -2.9%
> O=C(Nc1ccn(CCCNCc2ccccc2)c(=O)n1)OCc1ccccc1
  -1%, -0.3%
> COc1cccc(-c2ccc3c(c2)C2CC3CCN2C(C)=O)c1 (centres undefined)
  -4%, -3.0%
> CCCCN1CC(COCc2ccccc2)Oc2cccc(Oc3ccc(C(C)C)cc3)c2S1(=O)=O (centres undefined)
  -1%, -2.7%
> OCC1=C[C@@H](O)[C@@H]2C=CO[C@@H](O[C@@H]3O[C@H](CO)[C@@H](O)[C@H](O)[C@H]3O)[C@H]12
  -6%, -1.4%
> N#Cc1ccc(C(=O)N2CCC3CC2c2cc(-c4ccc(F)cc4)ccc23)cc1 (centres undefined)
  -19%, 1.8%
> C[C@H](CO)N1C[C@H](C)[C@@H](CN(C)Cc2ccc(-c3ccccc3)cc2)Oc2ccc(NC(=O)Cn3cnnn3)cc2C1=O
  0%, -6.6%
> O=C1Nc2c(Br)cccc2C1=O
  15%, 32%
> O=C1N[C@H]2CC=C[C@H]2Nc2ccccc21
  10%, -11%
> CCN(C[C@H]1N[C@@](C)(C(=O)OC)[C@H]2C(=O)N(Cc3ccccc3)C(=O)[C@@H]12)C(=O)Nc1ccc(Cl)cc1
  5%, 2.3%

The list goes on.
Results follow in this order: gsp antag, ClpP mod
> CC[C@]12c3[nH]c4ccccc4c3CCN1C(=O)C(CC(=O)NCCN1CCOCC1)C[C@@H]2C(=O)N1CCN(C(=O)C2CC2)CC1 (some centres undefined)
  -1%, -1.0%
> CCN(CC)C(=O)[C@H]1CC(CC(=O)NCCCn2ccnc2)C(=O)N2CCc3c([nH]c4ccccc34)[C@]12C (some centres undefined)
  4%, -0.2%
> CCN(C[C@H]1N[C@@](C)(C(=O)OC)[C@H]2C(=O)N(C)C(=O)[C@@H]12)C(=O)Nc1ccc(C)cc1
  10%, -1.6%
> CCOC(=O)C1=C(C)N(C[C@@H]2CC[C@@H](Cc3ccc(-c4ccccc4)cc3)O2)C(=O)NC1c1cccc2ccccc12 (some centres undefined)
  7%, -6.9%
> CC[C@]12c3[nH]c4ccccc4c3CCN1C(=O)C(CC(=O)NCCCN(C)C)C[C@@H]2C(=O)N1CCN(C(=O)c2ccco2)CC1 (some centres undefined)
  -2%, 0.4%
> CCN(C[C@H]1N[C@@](CC)(C(=O)OC)[C@H]2C(=O)N(Cc3ccccc3)C(=O)[C@@H]12)C(=O)Nc1ccc(C(F)(F)F)cc1
  11%, 0.4%
> C=CC[C@@H](CC(=O)N[C@@H](CO)Cc1ccccc1)C(=O)N[C@@H](COC(=O)[C@@H](CC=C)CC(=O)OC(C)(C)C)Cc1c[nH]c2ccccc12
  0%, 1.9%
> Cc1ccc(S(=O)(=O)N2[C@@H](c3ccc(Br)cc3)C(C(=O)O)=CC[C@H]2c2cccc(Cl)c2)cc1
  -8%, -3.9%
> O=C1c2ccccc2[C@@H]2C[C@@H](O)[C@H](Nc3ccccc3Cl)CCN12
  -12%, -0.6%
> COc1ccc([C@@H]2CC=C(C(=O)O)[C@H](c3ccc(C)cc3)N2S(=O)(=O)c2ccccc2C)cc1
  -13%, 0.9%
> CN(C(=O)c1cccc(NC(=O)Cc2ccc(NC(=O)C3CCN(C(=O)C4CCC4)CC3)cc2)c1)C1CCCC1
  0%, -2.4%
> Cc1cc(C=O)sc1[B-](F)(F)F
  -3%, -7.7%
> CCC(NC(=O)CC[C@H]1O[C@@H](n2cc(C)c(=O)[nH]c2=O)C[C@@H]1O)c1ccccc1 (some centres undefined)
  13%, 1.5%
> CCOC(=O)C1=CN(Cc2cccc(I)c2)S(=O)(=O)N(C)C1C (centres undefined)
  0%, -20%
> Cc1cn([C@H]2C[C@H](O)[C@@H](CCC(=O)NCc3ccccc3)O2)c(=O)[nH]c1=O
  9%, 4.5%
> CCN(CC)C(=O)[C@H]1C[C@H](CC(=O)NCCc2ccccn2)C(=O)N2CCc3c([nH]c4ccc(Cl)cc34)[C@]12C
  -3%, -0.3%
> C#CCOCCOCCOCCNc1nc(N2CCN(C(=O)[C@H](CCC(=O)O)n3cc(CN)nn3)CC2)nc(N2CCN(C(=O)[C@H](CCC(=O)O)n3cc(CN)nn3)CC2)n1
  4%, -0.1%
> CC(C)(C)OC(=O)C1=C(CO)CS[C@@H]2[C@H](NC(=O)Cc3ccccc3)C(=O)N12
  10%, -0.5%
> Cc1ccc(S(=O)(=O)N(C)C[C@@H]2Oc3c(NS(C)(=O)=O)cccc3C(=O)N([C@H](C)CO)C[C@@H]2C)cc1
  -4%, -4.6%
> F[B-](F)(F)COCc1ccccc1Br
  9%, -0.3%

Entries of single compounds as entered above. Values in the order: gsp antag | ClpP mod
CCN(CC)C(=O)[C@H]1C[C@H](CC(=O)NCCc2ccccn2)C(=O)N2CCc3c([nH]c4ccc(Cl)cc34)[C@]12C in the list: -3% | -0.3%
C#CCOCCOCCOCCNc1nc(N2CCN(C(=O)[C@H](CCC(=O)O)n3cc(CN)nn3)CC2)nc(N2CCN(C(=O)[C@H](CCC(=O)O)n3cc(CN)nn3)CC2)n1 in the list: 4% | -0.1%
Cc1ccc(S(=O)(=O)N2[C@@H](c3ccc(Br)cc3)C(C(=O)O)=CC[C@H]2c2cccc(Cl)c2)cc1 in the list: -8% | -3.9%
Cc1cc(C=O)sc1[B-](F)(F)F in the list: -3% | -7.7%
Cc1cn([C@H]2C[C@H](O)[C@@H](CCC(=O)NCc3ccccc3)O2)c(=O)[nH]c1=O in the list: 9% | 4.5%

Remaining list, next part:
Results follow in this order: gsp antag, ClpP mod
> Cc1ccc(NCCCn2cnc3c(OCc4ccccc4)ncnc32)cc1C
  -13%, 0.1%
> O=c1oc(C2(O)CCCCC2)cc2ccccc12
  4%, -15%
> CC(C)=CCC/C(C)=C/CNC(=O)C[C@H]1C[C@H](C(=O)N2CCCCC2)[C@@]2(C)c3[nH]c4ccc(Cl)cc4c3CCN2C1=O
  7%, 2.6%
> Cc1ccc(NC(=O)c2ncn(CCCNCc3ccccc3)n2)cc1C
  11%, 3.3%
> Cc1cn(CC(=O)NCCCn2ccnc2)c(=O)[nH]c1=O
  5%, -1.1%
> O=c1cc2c(c(-c3ccccc3)n1Cc1ccccc1)[C@H](CCO)NC2
  7%, -17%
> CN(C)C(=O)CCc1ccc2c3c([nH]c2c1)[C@]1(C)[C@@H](C(=O)N2CCCCC2)C[C@H](CC(=O)NCCc2ccccn2)C(=O)N1CC3
  5%, -5.8%
> Nc1ncnc2c1ncn2[C@@H]1O[C@H](CNC(=O)[C@H](N)Cc2cscn2)[C@@H](O)[C@H]1O
  -5%, -5.0%
> CC(C)NC(=O)Nc1ccc2c(c1)C(=O)N([C@H](C)CO)C[C@H](C)[C@@H](CN(C)C(=O)Nc1ccc3c(c1)OCO3)O2
  10%, -2.0%
> O=C(Cn1cnc2c(NCc3ccccc3)ncnc21)NCCN1CCOCC1
  -9%, -3.4%
> CC(=O)N1CCOc2ccc(S(=O)(=O)NC[C@H]3O[C@@H](n4ccc(=O)[nH]c4=O)[C@H](O)[C@@H]3O)cc21
  12%, -1.4%
> O=C(Cc1ccc(NC(=O)C2CCCN(C(=O)C3CCC3)C2)cc1)Nc1cccc(C(=O)N2CCCC2)c1 (centres undefined)
  -4%, 0.6%
> CCOC(=O)C1=C(C)N(C[C@@H]2CC[C@@H](Cc3ccc4cc(OC)ccc4c3)O2)C(=O)NC1c1ccccc1 (some centres undefined)
  -9%, -25%
> CCCCC[C@@H]1C=C(C(=O)O)[C@H](c2ccc(Cl)cc2)N1S(=O)(=O)c1ccc(C)cc1
  -10%, -0.7%
> NC(=O)c1ncn([C@@H]2O[C@H](CNCc3ccc(OCC(=O)Nc4nccs4)cc3)[C@@H](O)[C@H]2O)n1
  2%, 0.2%

Compound activity (PubChem)
